E coli growth: inhibitors of Escherichia coli growth | OD600, 23 h; active compounds read low | OD600 absorbance (test concentration not listed) | 330,000 compounds, 0.21% hits;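 active = OD600 absorbance below the run mean of sample wells minus 3.6 SD, in any replicate, cut at about 0.56 in these data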;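 also: stock transfer was 300 nL into about 60 µL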
RanGTP-Imp inh: inhibitors of RanGTP-importin-beta interaction, primary screen, biochemical, FRET, CFP-Ran, YFP-importin-beta, homogeneous. cell-free CFP-Ran/YFP-importin-beta FRET ratio. inhibition, % (test concentration not listed). 300,000 compounds, 1.1% hits;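 active = most replicates above 15%; inconclusive = exactly half above 15%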;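 also: 0% = DMSO wells and 100% = Ran loaded with GDP instead of GTP; wells of about 40 µL received 100 nL stock; the first replicate is given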
AF4-AF9 inh: blocks AF4 peptide binding to human AF9 | P42568 | AlphaScreen, biotin-AF4 peptide binding to FLAG-AF9 | inhibition, % at 10 µM | 350,000 compounds, 0.47% hits | AID 651704;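 active = every replicate reaching a set inhibition limit, whatever the replicate mean, cut at about 25% in these data; inconclusive = mean inhibition reaches that limit but some replicates miss it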;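 also: 0% = plate neutral control median and 100% = total signal loss; the record names both 10 and 1 µM as test concentration; the first replicate is given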
Target sequence (P42568 whole entry, looked up): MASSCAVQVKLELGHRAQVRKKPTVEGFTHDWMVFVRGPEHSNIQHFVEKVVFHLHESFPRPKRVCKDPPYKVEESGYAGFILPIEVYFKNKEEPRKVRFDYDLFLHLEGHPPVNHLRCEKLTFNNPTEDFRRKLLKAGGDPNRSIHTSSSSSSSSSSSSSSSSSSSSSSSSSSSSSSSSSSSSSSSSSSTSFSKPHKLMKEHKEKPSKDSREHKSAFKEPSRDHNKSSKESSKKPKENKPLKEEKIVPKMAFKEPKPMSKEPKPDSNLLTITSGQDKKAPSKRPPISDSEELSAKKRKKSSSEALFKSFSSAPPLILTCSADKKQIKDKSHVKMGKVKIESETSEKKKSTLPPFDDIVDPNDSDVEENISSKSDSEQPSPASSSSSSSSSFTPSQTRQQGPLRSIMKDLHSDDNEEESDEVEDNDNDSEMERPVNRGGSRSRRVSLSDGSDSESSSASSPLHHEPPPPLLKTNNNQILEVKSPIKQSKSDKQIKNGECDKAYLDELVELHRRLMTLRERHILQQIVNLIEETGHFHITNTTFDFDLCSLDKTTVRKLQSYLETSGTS
FGF22 binding: FGF22 (human) thermal shift binding; Q9HCT0; 340,000 compounds, 1.5% hits; recombinant FGF22 thermal shift, SYPRO orange fluorescence; percent of sucrose octasulfate shift, DMSO zero; calls only at 9.99 µM;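 active = melting point raised past a set limit in the mean and every replicate; inconclusive = no clear call; three in four hits are not shown here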
Target sequence (Q9HCT0 whole entry, looked up): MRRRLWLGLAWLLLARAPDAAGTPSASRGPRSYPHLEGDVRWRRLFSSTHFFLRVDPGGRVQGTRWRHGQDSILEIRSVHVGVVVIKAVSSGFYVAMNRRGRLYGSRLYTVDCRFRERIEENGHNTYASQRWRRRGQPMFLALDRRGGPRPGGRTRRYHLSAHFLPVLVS
HNF4A DNA FP: change in binding of human HNF4 alpha to DNA. P41235. HNF4a-FITC DNA binding, fluorescence polarization, 1 h. activity change, % at 10 µM. 360,000 compounds, 0.3% hits; in the data active = activity change above about 30%, passing the limit was not always enough;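 also: controls were the assay level and a saturating level of protein; the project sought stronger binding though the title names inhibitors; some compounds called inactive have numbers as strong as hits; positive values seem to mean higher polarization but the record does not say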
UCH37 inh: inhibitors of human deubiquitinating enzyme UCH37. inhibition, % (concentration not given with the values). purified proteasome/UCH37, Ub-AMC cleavage fluorescence. 330,000 compounds, 0.33% hits. Q9Y5K5;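 active = mean of two replicates above 20%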;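 also: 0% = compound-free wells with enzyme and 100% = wells lacking proteasome; stock transfer was 100 nL into about 20 µL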
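Reagent: Ub-AMC substrate; assay system: Proteasome-associated human UCH37 deubiquitinase; controls: no-proteasome and no-compound wells; read-out: % inhibition of Ub-AMC cleavage fluorescence; timing: 30 min preincubation with enzyme, 25 min cleavage at room temperature; signal: AMC fluorescence from Ub-AMC cleavage, excitation 355 nm, emission 460 nm; buffer or medium: Tris-HCl pH 7.4 plus ovalbumin, ATP-MgCl2, DTT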
Vif A3G: inhibitors of Vif binding to APOBEC3G peptide, primary screen, biochemical, TR-FRET, GST-Vif 1-94, biotin-A3G peptide, dose response retest (AID 1117319); TR-FRET GST-Vif / biotin-A3G peptide binding; higher % means a stronger effect; test concentration not given here; strong numbers were not always called active; one-dose inhibition, %; IC50 in µM for titrated hits; 260,000 compounds, 0.57% hits;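 active = above the screen mean plus three standard deviations and confirmed in dose response; inconclusive = results disagree or hit not tested in dose response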;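 also: Vif residues 1-94 fused to GST binding biotinylated APOBEC3G peptide 110-148; 0% = full assay without inhibitor and 100% = GST in place of GST-Vif; retest series ran down from 100 µM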
Starred values were filed as active, the others as inactive; i = inactive; ? = inconclusive; nt = not tested or not shown. These rows are one share of the data. The share of hits here may be higher or lower than overall.

E coli growth,RanGTP-Imp inh,SMILES,AF4-AF9 inh,FGF22 binding,HNF4A DNA FP,UCH37 inh,Vif A3G
0.66,-8.1,CCNC(=S)N(CCc1c(C)[nH]c2ccc(F)cc12)Cc1cccnc1,11,i,3.5,5.5,-16%
0.78,nt,CCc1nccn1S(=O)(=O)c1ccc2ccc(C)cc2c1,nt,nt,-2.5,3.5,1%
0.64,3.8,CCOc1ccc(C2/C(=C(\O)c3ccc4c(c3)OCCO4)C(=O)C(=O)N2Cc2cccnc2)cc1OCC (stereo not drawn),-0.3,i,3.1,11,9%
0.7,9.9,COc1ccc(NS(=O)(=O)c2ccc3c(c2)CCC(=O)N3)c(OC)c1,6.9,i,5.5,0.7,6%
0.65,1.5,CN(Cc1ccccc1F)c1nc(-c2cccnc2)nc2ccccc12,-5.1,i,4.4,5.3,nt
0.62,1.6,COc1ccc(NC(=O)c2csc3c2CCCC3)cc1,-14,i,-1.2,1.5,32%
nt,nt,CC1(C)CC(=O)C2=C(C1)N(c1ccccc1)C(=O)C(C(=O)OCc1ccccc1)C2 (stereo not drawn),-1.3,i,1.2,nt,6%
0.76,?,CCC(=O)N1CCN(c2ccc(NC(=O)c3ccco3)cc2)CC1,nt,nt,-3.2,5.0,4%
0.75,-1.2,COc1ccc(Cl)cc1NC(=O)c1cnc2n(c1=O)CCS2,1.1,i,-4.1,-34,nt
nt,4.3,Cc1nnc(C)n1/N=C/c1cccc([N+](=O)[O-])c1,-1.0,i,1.0,nt,-8%
0.7,nt,O=C(COc1ccc(-n2cnnn2)cc1)Nc1ccc(F)c(F)c1,-2.4,i,1.3,4.8,-9%
0.64,2.4,CCn1cc(C(=O)N2CCN(c3ccccc3)CC2)c(=O)c2cc(S(=O)(=O)N3CCOCC3)ccc21,1.1,i,-0.4,3.8,-3%
0.75,-1.6,COc1ccc(C(=O)N2CCN(C3CCCCC3)CC2)c(OC)c1,5.2,i,2.5,2.7,29%
0.7,?,CCCS(=O)(=O)n1nc(-c2ccc(OC)cc2OC)cc1N,-18,i,6.0,5.1,26%
0.67,0.5,Cc1ccc(-n2c(Cn3c(C)nc4ccccc43)n[nH]c2=S)cc1,-5.4,i,-5.0,0.6,26%
0.66,nt,COc1ncc(C2=CC(=O)CC(C)(C)C2)cn1,nt,i,3.3,2.3,nt
0.6,-0.9,O=C(Nc1ccc(NC(=O)C2CC2)nc1)c1ccccc1F,2.4,i,1.5,2.6,nt
nt,0.1,O=C(N/N=C/c1ccccn1)c1cccnc1,nt,i,2.1,nt,-7%
0.7,0.0,CN(C)Cc1c(O)ccc2ccccc12,31*,i,-2.2,-13,nt
0.7,nt,Cc1ccc(S(=O)(=O)N2C[C@@H]3[C@H]4CC[C@H](C4)[C@@H]3[C@@H](C)[C@@H]2C2CCCCC2=O)cc1 (stereo partly drawn),2.8,i,-1.3,-1.0,0%
0.69,0.1,CC1C(=O)N(Cc2ccc(F)cc2)c2ccccc2N1C(=O)c1c(F)cccc1F (stereo not drawn),-2.0,i,-1.6,4.9,-3%
0.65,4.4,Cc1ccc(COc2ccc(-c3nnco3)cc2)cc1,-2.8,i,-3.9,2.3,-4%
0.72,3.1,N/C(Cn1cncn1)=N\OC(=O)c1ccc(Cl)cc1Cl,nt,nt,-1.7,3.9,-10%
0.66,-1.0,CCOC(=O)c1cc(CC)sc1NC(=O)C1CC(=O)NN1Cc1ccccc1 (stereo not drawn),1.6,i,-4.3,2.0,10%
0.64,2.5,O=S(=O)(CCN1CCOCC1)c1ccc(Oc2ccc(S(=O)(=O)CCN3CCOCC3)cc2)cc1,-20,i,0.5,3.2,nt
0.7,nt,Cc1nc(COc2ccc(C(=O)NCc3ccccc3CN3CCCCC3)cc2)cs1,3.0,i,0.4,2.3,-2%
0.64,-7.2,CCOc1ccc(CCNC(=O)CN2CCN(Cc3ccccc3F)C2=O)cc1OCC,nt,nt,-0.5,2.2,-3%
0.68,3.7,Cc1cccc(C(=O)N[C@H](C(=O)Nc2nc3ccccc3[nH]2)C(C)C)c1,-2.1,i,-3.5,4.8,-2%
nt,-1.5,CCC(=O)Nc1ccc(C(=O)N/N=C/c2cccnc2)cc1,nt,nt,-2.0,nt,16%
0.7,?,Cc1ccc(S(=O)(=O)NC(C)C(c2cccs2)N2CCOCC2)cc1 (stereo not drawn),0.5,i,2.4,0.5,nt
nt,-2.0,Nc1ccc(Cl)c(S(=O)(=O)Nc2ccccc2Cl)c1,2.0,i,0.6,nt,-1%
nt,nt,CCCCCC(=O)N1C[C@H](n2cc(-c3ccc(F)cc3)nn2)[C@@H](O)C[C@@H]1c1ccc(Cl)cc1,-3.3,i,-1.2,nt,-6%
0.67,-2.1,CCn1c(NC(C)=O)nc2ccccc21,nt,nt,2.2,1.7,-2%
0.7,?,O=C(O)/C=C/C(=O)c1c(-c2ccccc2)[nH]c2ccccc12,-3.3,i,-5.1,3.4,nt
nt,155*,Cc1cccn2c(=O)c3cc(C(=O)NCc4ccco4)c(=N)n(CCOCCO)c3nc12,nt,nt,-1.0,nt,17%
0.69,nt,Cc1ccc(C)c(N2CCN(C(=O)CCc3nc(-c4ccccc4F)no3)CC2)c1,-0.5,i,4.3,-0.8,-2%
0.7,-0.9,COc1ccc(-c2nc3nc(N)nn3cc2C)cc1F,0.8,i,-2.9,3.8,-8%
0.7,-3.2,Cc1ccc(-n2c(C)cc(C(=O)CN3C(=O)C(=O)N(C4CCCC4)C3=O)c2C)cc1,-0.2,i,1.6,2.7,3%
0.74,4.4,O=C(CCC(=O)OCCCC(F)(F)C(F)(F)F)NC1CCCCC1,1.6,i,0.7,0.5,-1%
0.68,1.3,CCCC(=O)Nc1nnc(S(=O)(=O)N(CC)c2ccccc2)s1,-0.2,i,0.3,1.7,0%
0.77,8.2,Cc1cc(Cl)ccc1OCCCC(=O)N1CCCCC1,nt,nt,0.9,2.3,4%
0.69,?,CCc1ccc(S(=O)(=O)Nc2c(NC3CCCCC3)c3ccccc3oc2=O)cc1,nt,nt,-3.2,-5.9,nt
nt,0.8,C[C@@]12C(=O)N(Cc3ccc(-c4ccccc4)cc3)CC(=O)N1[C@H](/C=C/c1ccccc1)[C@@H]1C(=O)N(c3ccccc3)C(=O)[C@@H]12,2.3,i,-0.7,4.7,nt
0.68,2.9,CC(C)COc1ccc(C(=O)OCCN2CCOCC2)cc1,nt,nt,1.6,0.4,3%
0.71,1.6,C/C(N)=C(/C#N)C(=O)COC(=O)CCS(=O)(=O)c1ccccc1,nt,nt,-0.8,0.9,-2%
0.66,?,COCCn1c(SCc2ccc(F)cc2)nc2ccccc2c1=O,-8.7,i,1.3,2.5,nt
0.7,-4.0,FC(F)(F)c1cccc(NC(=S)N2CCCC2)c1,nt,nt,-1.3,0.0,1%
nt,nt,COCCCN1C(=O)C(CC(=O)NC2CCCCC2)CC(C(=O)N2CCCCCC2)=C1C (stereo not drawn),1.2,i,3.5,nt,nt
nt,2.3,COc1cc(/C=N/NC(=O)C2CCN(CC(O)COCc3ccccc3)CC2)cc(OC)c1OC (stereo not drawn),0.4,i,0.7,nt,3%
0.66,-3.4,O=C(Nc1cccnc1)c1ccc(COc2ccccc2Br)cc1,-2.1,i,-5.4,3.3,nt
0.65,-1.1,CCN(Cc1ccccc1OC)CC1CCCN(CCc2cccc(OC)c2)C1 (stereo not drawn),1.3,i,2.5,2.7,nt
0.71,6.5,Cc1cccc(N2CCN(C(=O)c3cccc(N4C(=O)C5C6C=CC(C6)C5C4=O)c3)CC2C)c1 (stereo not drawn),1.8,i,0.8,3.4,nt
nt,0.7,Cc1nc(Nc2ccccc2)sc1C(=O)c1ccccc1,-1.2,i,4.5,nt,nt
0.68,nt,CCN(Cc1ccncc1)Cc1c(O)ccc2ccccc12,0.0,i,-6.0,-13,2%
0.71,-1.1,O=C(NNC(=S)Nc1ccccc1)c1cc(Br)ccc1Cl,-0.6,i,1.0,0.5,12%
0.74,-5.2,Oc1ccccc1CN1CCCN(Cc2ccccc2O)C1,nt,nt,-2.1,0.1,?
0.72,1.1,COC(=O)c1c(-c2ccccc2)csc1NC(=O)c1c(-c2ccccc2)noc1C,-0.5,i,1.0,-7.7,6%
0.69,3.6,O=C(NCc1n[nH]c(=S)n1-c1ccc(Cl)c(Cl)c1)c1ccco1,-5.2,i,0.8,2.2,2%
0.66,1.9,CC(C)c1nc2c([nH]1)c(=O)n(C)c(=O)n2C,-4.4,i,-0.3,3.6,nt
0.72,-0.4,CC(=O)Nc1c(Nc2ccccc2)c2ccccc2oc1=O,-0.9,i,2.4,4.0,8%

(next part)
E coli growth,RanGTP-Imp inh,SMILES,AF4-AF9 inh,FGF22 binding,HNF4A DNA FP,UCH37 inh,Vif A3G
0.65,-2.1,COCCn1c(=O)[nH]c2cc(C(=O)NCCc3ccc(S(N)(=O)=O)cc3)ccc2c1=O,-20,i,-0.6,-25,-7%
0.7,3.2,O=C(COC(=O)c1cccs1)NCCCc1ccccc1,-4.8,i,-1.7,-0.5,-6%
nt,?,CCOC(=O)Cc1c(Sc2ccccc2)c2cc(C)ccc2n1C,-3.8,i,3.9,nt,-2%
nt,nt,COc1ccc(C(O)c2ncc(-c3cccc(OC)c3)[nH]2)cc1 (stereo not drawn),-3.4,i,-0.1,nt,nt
0.68,-2.4,C=CCn1c(SCc2nc3ccccc3c(=O)[nH]2)nc2ccccc2c1=O,nt,nt,2.4,0.8,11%
0.71,-0.4,Cc1ccccc1N1C(=O)C2C3C=CC(C2C1=O)N(C)C3=O (stereo not drawn),nt,nt,0.5,1.2,-2%
0.62,-0.2,COc1ccc(CCNC(=O)Nc2cc(F)c(F)cc2Cl)cc1OC,1.0,i,0.8,2.9,nt
0.71,nt,Cc1ccc(NS(=O)(=O)N2CCCCC2)cc1,11,nt,1.5,4.2,-1%
0.7,0.1,CSc1ccccc1NC(=S)Nc1cccc(C(F)(F)F)c1,nt,nt,-3.0,-0.4,8%
0.73,-1.4,Cn1c(SCC(=O)NCc2ccc3c(c2)OCO3)nnc1-c1c[nH]c2ccccc12,-2.7,i,-5.6,5.6,0%
0.78,-0.4,CCCCCCOC(=O)Cc1c(C)nc(-c2ccccc2)[nH]c1=O,nt,nt,0.1,-4.9,3%
0.66,-0.4,CN1C(=O)C2(Nc3ccccc3-c3nc4ccccc4n32)c2ccccc21 (stereo not drawn),nt,nt,1.3,-0.9,-3%
0.68,1.2,COc1ccc(CNC(=O)C2CCN(c3nc(OC)nc(OC)n3)CC2)cc1,nt,nt,0.2,3.8,-2%
0.71,-2.0,Nc1c(N(Cc2ccccc2)C(=O)COc2cccc(Cl)c2)c(=O)[nH]c(=O)n1Cc1ccccc1,1.7,nt,-4.6,4.4,-2%
0.7,0.3,Cc1ccccc1NC(=O)Nc1nnc(CC(=O)NCc2ccccc2)s1,nt,nt,1.0,2.3,?
0.71,23*,COc1ccc(CCC(=O)NNC(=S)NCc2ccc(F)cc2)cc1,-0.9,i,-2.8,-1.4,17%
